PINK1 expr mod = changes PINK1 expression; 410,000 compounds, 0.2% hits; AID 624263; Potency, µM (titrated, usually from 76.6 µM), for the others: at the highest dose activation (PINK1 increase), usual class: activators; PINK1 immunofluorescence, high-content cytometry, 24 h; active = well fitted activation curve with a large enough effect; inconclusive = small, poorly fitted or top-dose-only effect; inactive = flat fitted curve, though single readings scatter; cell line not stated here;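 further: potency means the concentration at half of the fitted maximal effect; % of control where 0% means no effect; nearly all actives have a fitted effect of over 65% in size; a mitochondrial uncoupler was the plate control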
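PINK1 protein, normally rapidly degraded, was detected by immunofluorescence after 24 hour compound treatment of a stable cell line. Titration data (5 concentrations) came from laser-scanning cytometry, with CCCP-treated wells as controls.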
Menin-MLL FL inh = inhibitors of human menin-MLL interaction, wild-type MLL peptide. Fluorescence polarization, fluorescein-MLL peptide displacement from menin. FP activity change, % at 61.4 µM. 290,000 tested, under 10 active; inconclusive = falling polarisation curve, or a change in total fluorescence; inactive = total fluorescence flat and polarisation flat or rising; no compound was filed as active; the % refers to the polarisation; negative = inhibition;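 further: % of control where 0% means no effect; inhibitors lower the polarisation; unlabelled MLL peptide was the positive control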
gsp ag = agonists of gsp mutant (McCune-Albright syndrome). gsp mutant cells, cAMP HTRF, 30 min; control for the full effect not named in the record. Potency, µM (titrated, usually from 76.9 µM), for inactives: at the highest dose activation (cAMP increase), actives largely listed as activators. 340,000 compounds, 0.13% hits; active = well fitted activation curve with a large enough effect; inconclusive = small, poorly fitted or top-dose-only effect, or another doubt; inactive = no such curve, though single readings can be large or run the other way; cell line not stated here;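 further: phosphodiesterase inhibitor Ro 20-1724 added with compounds to block cAMP breakdown; potency means the concentration at half of the fitted maximal effect; nearly all actives have a fitted effect of over 60% in size; about a fifth of the inactives were tested at one dose only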
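Cells in DMEM/10% FBS with G418 were pretreated with compounds in DMSO plus […] (300 uM stock) for 30 min at 37C. cAMP was measured by HTRF (cAMP-d2 plus anti-cAMP antibody-K) after 30 min at room temperature.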
D2 ag = agonists of human D2 dopamine receptor (beta-arrestin). P14416. DiscoveRx PathHunter D2 beta-arrestin, luminescence, 90 min; 100% = 57 uM dopamine signal. activation, % (no concentration beside the values). 360,000 compounds, 0.084% hits. AID 624465; in the data active = activation above about 40%; inconclusive = about 15% to 40%; inactive = below about 15%; further: compound concentration not given in the record; the text of the record calls up to 30% inactive
Target sequence (P14416 whole entry, looked up): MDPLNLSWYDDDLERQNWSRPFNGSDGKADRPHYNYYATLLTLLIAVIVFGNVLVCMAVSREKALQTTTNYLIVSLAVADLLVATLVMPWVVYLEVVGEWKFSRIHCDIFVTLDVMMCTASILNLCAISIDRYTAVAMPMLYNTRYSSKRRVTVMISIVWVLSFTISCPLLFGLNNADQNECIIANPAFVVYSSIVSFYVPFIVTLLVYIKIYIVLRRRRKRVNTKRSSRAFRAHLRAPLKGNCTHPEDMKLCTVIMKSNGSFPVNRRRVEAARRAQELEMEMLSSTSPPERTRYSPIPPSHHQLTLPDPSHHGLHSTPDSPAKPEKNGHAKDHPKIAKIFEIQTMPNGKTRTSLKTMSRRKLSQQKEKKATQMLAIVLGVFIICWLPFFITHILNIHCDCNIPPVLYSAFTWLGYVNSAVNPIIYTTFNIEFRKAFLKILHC
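DiscoveRx PathHunter D2 beta-arrestin cells (2,100/well) attached overnight, then compound-stimulated 90 min at 37 C in HBSS/10 mM HEPES/0.1% Tween-20 buffer; beta-galactosidase complementation read by luminescence after 1 h at ambient temperature. Dopamine 57 uM final (EC100) as control.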
ClpP mod = qHTS Assay for Activators of ClpP; ATP-dependent Clp protease proteolytic subunit (Bacillus subtilis (strain 168)), P80244; 340,000 compounds, 1.9% hits; Potency, µM (series often up to 57.5 µM), without a hit: top-dose activity change, negative = active; AID 651965, 2013; purified B. subtilis ClpP, FRET peptide cleavage, 20 min; active = well fitted falling curve with a large enough effect; inconclusive = small, poorly fitted or top-dose-only effect; inactive = no such curve, though single readings can be large or run the other way; further: potency means the concentration at half of the fitted maximal effect; the source files actives as falling curves though it sought activators and does not explain the sign; nearly all actives have a fitted effect of over 65% in size; many hits overshoot -100%
Target sequence (P80244 whole entry, looked up): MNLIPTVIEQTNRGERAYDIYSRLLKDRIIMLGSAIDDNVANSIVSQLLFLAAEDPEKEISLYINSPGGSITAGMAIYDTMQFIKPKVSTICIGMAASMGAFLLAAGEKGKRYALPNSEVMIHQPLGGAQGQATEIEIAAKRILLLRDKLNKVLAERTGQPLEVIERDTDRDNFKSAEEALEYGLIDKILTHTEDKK
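Buffer: 100 mM Tris/HCl pH8, 100 mM KCl, 0.05% low protease BSA, 2.5% glycerol, 0.01% Tween-20. ClpP 10 microg/mL final; 20 min RT; delta FRET normalized to ADEP and DMSO controls.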
Sfp inh = inhibitors of Bacillus subtilis Sfp phosphopantetheinyl transferase; Potency, µM, without a hit: max response, negative = inhibition, usual class: inhibitors; 310,000 compounds, 3.5% hits; Biochemical Sfp PPTase activity, qHTS; active means well fitted inhibition curve with a large enough effect; inconclusive means small, poorly fitted or top-dose-only effect, or another doubt; inactive means no such curve, though single readings can be large or run the other way;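 further: the enzyme is Sfp with the accession as filed and its product quenches rhodamine fluorescence; potency means the concentration at half of the fitted maximal effect; 0% = enzyme reaction without inhibitor and -100% = no enzyme wells; top concentration of the series not given in the record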
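After 15 min at room temperature with compound, 15 nM Sfp received 5 uM rhodamine-CoA plus 12.5 uM BHQ-2-ybbR (50 mM Hepes pH 7.6, 10 mM MgCl2). Rate came from the fluorescence difference over 30 min, ex 525/em 598 nm.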
gsp antag = antagonizes gsp, the McCune-Albright syndrome mutation | 340,000 compounds, 0.4% hits | gsp-mutant cells, cAMP HTRF, 30 min; control for the full effect not named in the record | Potency, µM (top dose mostly 76.9 µM), inactives show at the top dose activity change, negative = inhibition, actives largely listed as inhibitors; active = falling curve of any shape with a large fitted effect; inconclusive = falling curve, mostly with a smaller effect; inactive = flat or rising curve; cell line not stated here;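 further: intracellular cAMP measured with PDE inhibitor Ro 20-1724 present during compound exposure; potency means the concentration at half of the fitted maximal effect; on the % scale 0 is the no-effect control and ±100 the full control effect; nearly all actives have a fitted effect of over 65% in size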
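G418-selected cells were plated in DMEM/10% FBS for 16-24 h at 37C, then treated with compounds plus the PDE inhibitor […] (300 uM solution added) for 30 min at 37C. Intracellular cAMP was measured by HTRF after 30 min lysis at room temperature.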
The depositor's hits bear a star; ? = inconclusive; . = not tested or not shown; & = joins results of further samples; [ ] = remark or other dose.

SMILES	PINK1 expr mod	Menin-MLL FL inh	gsp ag	D2 ag	ClpP mod	Sfp inh	gsp antag
COc1ccc(CNC(=O)C2CCC(CNC(=O)[C@@H]3Cc4ccccc4CN3)CC2)cc1 (some centres not stated)	-0.1%	.	21.4%	-1.5	-4.1%	7.4%	-3.1%
CCNC(=S)/N=C(\N)Nc1nc(C)c2cc(C)ccc2n1	4.1%	?	-5.4%[15.4 µM]	-8.2	.	2.8%	-23.1%
O=C(Oc1ccc(F)cc1C(=O)/C=C/c1cccs1)c1cccc([N+](=O)[O-])c1	1.9%	0.7	6.6%	-3.0	-0.1%	16.2%	6.3%
C[C@@H]1CN([C@H](C)CO)C(=O)CCCn2nncc2CO[C@@H]1CN(C)S(C)(=O)=O	6.5%	.	13.9%	-6.9	-1.5%	.	.
CCCN(CCC)CC(O)Cn1c2ccccc2c2ccccc21 (configuration not stated)	4.2%	-0.7	?	-2.8	.	17.1%	7.0%
CC(C)CNC(=O)c1cc([N+](=O)[O-])ccc1N1CCCCC1	0.6%	12.0	2.0%	-0.7	0.6%	5.0%	-7.4%
COC(=O)c1ccc(C(C(=O)NC2CCCCC2)N(Cc2ccc(F)cc2)C(=O)Cc2cccs2)cc1 (configuration not stated)	10.1%	-2.0	-2.1%	-4.9	-2.9%	6.1%	-8.3%
Cc1noc(C)c1NC(=O)N(C)C[C@H]1OCc2cnnn2CCCC(=O)N([C@@H](C)CO)C[C@H]1C	0.3%	.	?	1.2	0.9%	.	.
CCCOc1cccc(C2C(C(=O)c3cc4ccccc4o3)=C(O)C(=O)N2c2cc(C)on2)c1 (configuration not stated)	?	.	?	6.7	1.5%	4.9%	4.6%
O=C(O)c1cc(NS(=O)(=O)c2ccc(NC3CCCCC3)c([N+](=O)[O-])c2)cc(C(=O)O)c1	-1.0%	-2.0	-1.1%	-8.9	1.0%	8.1%	-9.0%
Cc1cc(S(=O)(=O)N2CCN(c3ccccc3C)CC2)ccc1F	-3.0%	4.1	7.1%	3.3	?	3.7%	-0.4%
CC(=O)c1cccc(CN2CCCC(CCC(=O)NCc3ccc(F)c(F)c3)C2)c1 (configuration not stated)	-0.5%	0.4	0.5%	-5.4	-1.0%	20.3%	-4.7%
CCC(C)(C)n1nnnc1C(c1cccs1)N1CCN(Cc2ccccc2)CC1 (configuration not stated)	-1.5%[38.3 µM]	-0.7	-2.6%	-3.1	-1.5%	2.2%	-2.4%
O=C(N/N=C/c1ccc(-c2ccccc2[N+](=O)[O-])o1)c1cncc(Br)c1	-1.5%	1.3	-3.4%	5.7	-2.4%	?	-9.9%
Cc1ccc(S(=O)(=O)NNC(=O)c2ccccc2O)cc1	-2.1%	-2.5	7.6%[15.4 µM]	4.1	-6.8%	4.0%	8.8%
Cc1ccc(-n2cc(C(C)(C)C)[nH]c2=S)cc1	-3.1%	2.0	0.5%	-2.3	0.8%	-12.6%	1.4%
C=CCn1c(SC(C)C(=O)NCc2ccc3c(c2)OCO3)nnc1C1CCCCC1 (configuration not stated)	-3.7%[38.3 µM]	-2.8	-20.2%	-1.7	0.2%	-9.0%	-13.9%
CCOC(=O)Cn1c(N2CCOCC2)nc2c1c(=O)[nH]c(=O)n2C	-2.3%	-0.7	6.7%	-3.6	-0.3%	15.8%	-19.8%
O=C1c2ccccc2-c2ccc(C(=O)N3CCOCC3)cc21	0.5%	-0.3	-0.1%	-2.1	0.6%	7.0%	13.5%
CS(=O)(=O)N(CC(=O)NCCc1ccccc1)C1CCCCC1	2.6%[38.3 µM]	0.4	5.7%	0.8	-1.0%	-2.1%	-2.2%
Cc1ccc(/C=N/N=C2/NC(=O)C(CC(=O)Nc3ccc(Cl)cc3)S2)o1 (configuration not stated)	2.1%	10.2	2.1%	1.1	1.3%	35.5µM*	-7.3%
Cc1ccc(CN2CCCN(Cc3c(C)cc(C)cc3C)S2(=O)=O)cc1	7.8%&2.9%	2.8	16.9%	2.5	-0.1%&-0.9%	-9.1%	2.1%
CC1CCCC(NC(=O)COC(=O)[C@@H]2CC(O)CN2S(=O)(=O)c2ccc3c(c2)OCCO3)C1C (some centres not stated)	-1.8%	7.0	0.0%	-1.5	2.6%	5.3%	0.7%
Cc1cc(-c2ccccc2)n2ncc(C#N)c2n1	3.6%	0.1	3.4%	-6.8	4.1%	3.0%	3.1%
Cc1cc(NC(=O)CCC(=O)N(C(C(=O)NC(C)(C)C)c2ccccc2Cl)C(C)(C)C)no1 (configuration not stated)	-0.5%	5.0	-12.3%[15.4 µM]	-2.2	.	11.0%	-0.9%
O=C(CSc1nc2ccccc2n1-c1ccccc1)NCC1CCCO1 (configuration not stated)	-0.4%	1.4	5.9%	-1.8	-1.8%	2.7%	0.8%
COc1ccc(NC(=O)CS(=O)(=O)c2ccccc2)cc1	1.0%	2.9	11.1%[15.4 µM]	5.7	-2.8%	19.7%	10.5%
CCOC(=O)c1c(NC(=O)c2nc3n(n2)C(C(F)F)CC(C)N3)sc2c1CCCC2 (configuration not stated)	.	0.5	12.3%	-0.1	?	-2.8%	-0.3%
Nc1nnc(-c2ccccc2)c(-c2ccccc2)n1	-1.2%	-2.8	-11.3%	-1.9	0.5%	19.0%	7.6%
Cc1nnc(-c2ccccc2)nc1N1CCOCC1	-0.8%	2.8	9.0%	-4.1	-0.5%	19.7%	6.7%
CC(C)[C@H](NC(=O)N1c2ccccc2NC(=O)[C@@H]1C(C)C)C(=O)N[C@@H](C(=O)O)c1ccccc1	-0.2%	-3.6	.	-7.7	-0.3%	17.3%	10.1%
CC1CCN(C(=S)Nc2ccc3nc4n(c(=O)c3c2)CCCCC4)CC1	0.9%	1.7	-16.6%	-3.9	-5.3%	-7.6%	-24.1%
CC/C(=N\NC(=O)Cc1ccc(Br)cc1)c1cccs1	0.5%	-3.2	7.1%	0.3	-0.1%	11.1%	3.7%
COc1ccccc1N(C)S(=O)(=O)c1ccc(C(=O)O)cc1	-0.3%	3.8	7.1%	-2.1	.	16.4%	-2.1%
Cc1ccc(C(=O)OCC(=O)Nc2sc3c(c2C#N)CCCC3)cc1NC(=O)c1ccco1	0.2%	4.4	-10.0%	1.9	-2.6%	?	?
CC1CCN(c2ccc3c(c2)S(=O)(=O)c2cccc(C(=O)NCc4ccc(F)cc4)c2C3=O)CC1	1.6%	.	?	-6.3	1.5%	.	-8.4%
Fc1ccc(-c2nnc(SCc3ncc(-c4ccccc4)o3)n2CC2CCCO2)cc1 (configuration not stated)	-0.9%	-1.1	5.5%	-2.5	-2.1%	0.7%	-19.1%
C#CCOCCOCCOCCNc1nc(N2CCN(C(=O)[C@H](CCCN=C(N)N)n3cc(C(N)[C@H](C)CC)nn3)CC2)nc(N2CCN(C(=O)[C@H](CC(N)=O)n3cc(C(N)[C@@H](C)CC)nn3)CC2)n1 (some centres not stated)	3.5%	.	.	-3.6	1.7%	.	12.4%
CC(C)(C)C1CCC(=NNC(=O)c2cc(-c3ccccc3)n[nH]2)CC1 (configuration not stated)	8.5%	4.3	-7.2%	-3.2	-3.2%	-0.2%	-16.2%
Cc1cc(C)n(-c2nc(NC(C)C)nc(NC(C)C)n2)n1	-8.0%[38.3 µM]	0.5	?	-1.0	-0.2%&0.9%	?	0.3%
O=C(NCc1ccccc1Cl)C1CCN(S(=O)(=O)c2ccc(N3CCCC3=O)cc2)CC1	14.0%	.	-0.1%	0.4	-0.6%	8.7%	-13.4%
COc1ccc([N+](=O)[O-])cc1NC(=O)c1ccc(CN(c2ccc(C)c(C)c2)S(C)(=O)=O)cc1	2.6%	-0.1	-6.1%	-1.2	0.8%	16.7%	-17.2%
CC(=O)c1cccc(NC(=O)c2ccc(N(Cc3ccccc3C)S(C)(=O)=O)cc2)c1	2.0%	-0.4	-2.1%	-0.4	1.8%	9.4%	-18.5%
CCn1c(SCC(=O)N2CCOCC2)nnc1-c1cccs1	-2.3%	0.3	-3.5%	-3.0	-3.6%	2.0%	9.0%
Oc1ccccc1-c1csc(-c2ccccc2)n1	0.2%	0.1	6.7%[15.4 µM]	0.3	.	-15.1%	?
CCCCn1c(N)c(N(CCOC)C(=O)c2cc3c(s2)CCCCC3)c(=O)[nH]c1=O	-2.8%	.	5.1%	-1.9	-7.2%	.	0.7%
Cc1ccc(C(=O)OCC(=O)NC(=O)c2cccn2C)cc1	1.1%[38.3 µM]	0.3	16.6%	-1.3	-13.4%	10.8%	9.0%
O=C1N(Cc2ccccc2)CCCC12CCCN(Cc1ccccc1)C2=O	-3.0%	6.0	29.5%	0.8	0.7%	-10.4%	4.7%
O=C(CNc1cc(S(=O)(=O)N2CCCC2)ccc1OCC(F)(F)F)Nc1ccc(SC(F)F)cc1	-1.6%	2.9	-5.2%[15.4 µM]	2.3	-7.3%	17.8%	-23.4%
O=C(NCc1ccccc1)c1cc(C2CCCN(S(=O)(=O)c3ccccc3)C2)on1 (configuration not stated)	-0.3%	.	.	1.4	0.8%	.	.

Other results:
SMILES	PINK1 expr mod	Menin-MLL FL inh	gsp ag	D2 ag	ClpP mod	Sfp inh	gsp antag
COCC(=O)Nc1cc([N+](=O)[O-])ccc1OC	-0.2%	-0.3	28.1%	0.3	-0.3%	13.3%	4.0%
COCCNC(=O)C1CCCN(C(=O)c2ccc3ccccc3n2)CC1 (configuration not stated)	3.9%	.	.	-4.3	-2.1%	.	.
CC(C)NCCCOc1ccc(Cl)cc1Br	0.1%	1.4	-12.1%	-7.2	-0.9%	-86.4%	16.4%
N#Cc1ccc(C23CC4(C2)[C@H](CN(CC2CCCCC2)[C@@H]4c2ccccc2)C3c2ccc(Cl)nc2)cc1 (some centres not stated)	2.4%	10.9&4.1	.	-3.9	-1.1%	19.9%&-5.2%	-12.9%
C=CCn1c(SC2CCOC2=O)nc2sc(CC)cc2c1=O (configuration not stated)	-3.2%	-2.3	-12.1%	0.4	-1.4%	2.1%	3.8%
O=C(NNC(=O)C1CCN(S(=O)(=O)c2ccccc2C(F)(F)F)CC1)c1ccccc1O	-1.1%	.	-5.6%[15.4 µM]	-3.9	?	.	0.7%
CCCSc1nc(SCC(=O)NCc2ccccc2)c2c3c(sc2n1)COC(C)(C)C3	?	?	-2.6%	-0.6	-10.2%	18.8%	-0.3%
Cc1c(C(=O)N(C)C)c2ccc(Cl)cc2n1O	1.1%	-0.6	3.8%	4.4	-1.6%	7.2%	3.9%

Screens from PubChem.
